Screening results as filed in PubChem BioAssay.
rRNA inh HTS: inhibitors of bacterial rRNA selective over humanized ribosomes; GFP signal change (wild-type ribosome), % (concentration not given with the values); E. coli WT GFP vs humanized-ribosome RFP mutants, fluorescence, 24 h; hits give low values; DMSO median 0, no signal -100; 350,000 compounds, 1.6% hits;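 active = significant combined selectivity score with lowered wild-type GFP, culture density cut under 30%, mutant RFP and density less affected; inactive = any of these conditions unmet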; note: one replicate is shown; some compounds called inactive have numbers as strong as hits
FGF22 binding: FGF22 (human) thermal shift binding; recombinant FGF22 thermal shift, SYPRO orange fluorescence; percent of sucrose octasulfate shift, DMSO zero; calls only at 9.99 µM; 340,000 compounds, 1.5% hits;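 active = melting point raised past a set limit in the mean and every replicate; three in four hits are not shown here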
Target sequence (Q9HCT0 whole entry, looked up): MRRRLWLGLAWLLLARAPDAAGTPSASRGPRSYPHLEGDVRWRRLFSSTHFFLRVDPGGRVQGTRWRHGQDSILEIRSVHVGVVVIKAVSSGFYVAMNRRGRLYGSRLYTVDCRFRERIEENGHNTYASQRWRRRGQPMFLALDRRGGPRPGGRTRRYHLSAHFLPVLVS
rRNA inh HTS OD600: also measured in rRNA inh HTS; calls as there; OD600 change, %; measured here: OD600 growth;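 optical density of the mix in the first replicate; 0 = DMSO median and -100 = no signal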
rRNA inh HTS RFP: second read-out of rRNA inh HTS, no call of its own (marks repeat the call); RFP signal change, %; measured here: RFP humanized mutant strains;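 first replicate; 0 = DMSO median and -100 = no signal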
Active calls of the source: *; i = inactive; / = no result given; & = joins results of further samples. These rows are one share of the data, so the mix of outcomes need not match the whole.

Value order – rRNA inh HTS | rRNA inh HTS OD600 | rRNA inh HTS RFP | FGF22 binding
- N#C[C@H]1[C@@H](c2ccc(C#CC3(O)CCCC3)cc2)[C@H](CO)N1C(=O)C1CCC1
 : 1 | 2 | 0.0 | i
- C[C@@H]1CN([C@H](C)CO)C(=O)c2cc(NS(=O)(=O)c3ccc(F)cc3)ccc2O[C@@H](C)CCCCO[C@H]1CN(C)C(=O)Nc1ccc2c(c1)OCO2
 : 1 | -16 | -2.3 | i
- C[C@H]1CN([C@@H](C)CO)C(=O)c2cc(C#Cc3ccccc3F)cnc2O[C@H]1CN(C)C(=O)C1CC1
 : 1 | -11 | 0.4 | i
- C[C@@H]1CN([C@@H](C)CO)C(=O)Cc2cc(NS(C)(=O)=O)ccc2O[C@H]1CN(C)C(=O)Nc1ccccc1
 : 3 | 9 | -1.6 | i
- CO[C@H]1CN(C)C(=O)c2cc(NC(=O)NC(C)C)ccc2OC[C@@H](C)N(CC2CC2)C[C@H]1C
 : 2 | -8 | -1.7 | i
- CO[C@@H](CN(C)C(=O)c1ccc2c(c1)OCO2)[C@@H](C)CN([C@H](C)CO)S(=O)(=O)c1ccc(F)cc1
 : -6 | -6 | 0.4 | i
- O=C(CC1CC1)N1CC2(C1)[C@@H](c1ccccc1)[C@@H](CO)N2CC1CCOCC1
 : 1 | 1 | -1.5 | i
- CO[C@H]1CN(C)C(=O)c2cc(NC(=O)C3CC3)ccc2OC[C@@H](C)N(CCC(F)(F)F)C[C@H]1C
 : -1 | 2 | 0.0 | i
- C[C@H]1CN([C@@H](C)CO)C(=O)c2cc(C3=CCCCC3)cnc2O[C@H]1CN(C)C(=O)C1CCOCC1
 : 8 | 21 | -4.4 | i
- COc1ccc2c3c([nH]c2c1)[C@H](CO)N(C(=O)c1cccnc1)CC31CCN(C(=O)c2cccnc2)CC1
 : 3 | 5 | -0.8 | i
- C[C@@H]1CN([C@@H](C)CO)C(=O)c2cc(NS(=O)(=O)c3ccc(F)cc3)ccc2O[C@@H](C)CCCCO[C@H]1CN(C)S(=O)(=O)c1ccc(Cl)cc1
 : -3 | 2 | 0.0 | i
- Cc1noc(C)c1NC(=O)Nc1ccc2c(c1)C(=O)N([C@H](C)CO)C[C@@H](C)[C@H](CN(C)C)OCCCC[C@H](C)O2
 : 6 | 1 | -0.4 | i
- CO[C@H]1CN(C)C(=O)c2ccc(NC(=O)C3CC3)cc2OC[C@@H](C)N(C(=O)CN(C)C)C[C@@H]1C
 : 3 | 2 | -1.9 | i
- Cc1cccc(S(=O)(=O)N[C@@H]2CC[C@H](CCNC(=O)CCN3CCCCC3)O[C@H]2CO)c1
 : -1 | 3 | -1.6 | i
- C[C@@H]1CN([C@@H](C)CO)C(=O)c2cc(C#CCc3ccccc3)cnc2O[C@H]1CN(C)C(=O)C1CC1
 : 2 | 3 | -0.5 | i

Entries of single compounds, looked up by structure. Order of screens: rRNA inh HTS	rRNA inh HTS OD600	rRNA inh HTS RFP	FGF22 binding
CO[C@H]1CN(C)C(=O)c2cc(NC(=O)C3CC3)ccc2OC[C@@H](C)N(CCC(F)(F)F)C[C@H]1C across the screens: -1	2	0.0	i
C[C@@H]1CN([C@H](C)CO)C(=O)c2cc(NS(=O)(=O)c3ccc(F)cc3)ccc2O[C@@H](C)CCCCO[C@H]1CN(C)C(=O)Nc1ccc2c(c1)OCO2 across the screens: 1	-16	-2.3	i

The main list resumes with the two entries that preceded the break.
Value order – rRNA inh HTS | rRNA inh HTS OD600 | rRNA inh HTS RFP | FGF22 binding
- Cc1cccc(S(=O)(=O)N[C@@H]2CC[C@H](CCNC(=O)CCN3CCCCC3)O[C@H]2CO)c1
 : -1 | 3 | -1.6 | i
- C[C@@H]1CN([C@@H](C)CO)C(=O)c2cc(C#CCc3ccccc3)cnc2O[C@H]1CN(C)C(=O)C1CC1
 : 2 | 3 | -0.5 | i
- CCCN1[C@H](C(=O)OC)[C@@H](CO)[C@@H]2Cn3c(ccc(C4=CCCCC4)c3=O)[C@@H]21
 : -2 | -4 | -1.6 | i
- C[C@@H]1CN([C@H](C)CO)S(=O)(=O)c2ccc(C#CC3(O)CCCC3)cc2O[C@@H]1CN(C)C(=O)c1cccnc1
 : 0 | -1 | -1.0 | i
- O=C(c1ccccc1F)N1C[C@H]2[C@@H](c3ccccc31)[C@@H](CO)N2C(=O)c1ccncc1
 : 4 | 11 | 0.4 | i
- C[C@H]1CCCCO[C@H](CN(C)C(=O)Nc2cccc3ccccc23)[C@@H](C)CN([C@@H](C)CO)C(=O)c2cc(NS(=O)(=O)c3ccccc3)ccc2O1
 : -3 | -4 | 0.8 | i
- CCCC(=O)Nc1ccc2c(c1)C(=O)N(C)[C@@H]1CC[C@H](CC(=O)Nc3cn(C)nc3C)O[C@@H]1CO2
 : 0 | 3 | -1.4 | i
- COc1ccc(-c2ccc3n(c2=O)C[C@H]2[C@H](CO)[C@@H](C(=O)N4CCOCC4)[C@@H]3N2C)cc1
 : 1 | 13 | -0.1 | i
- O=C(C[C@H]1CC[C@@H](NC(=O)c2cccc(F)c2)[C@@H](CO)O1)NCc1ccc(Oc2ccccc2)cc1
 : -2 | -15 | -1.8 | i
- COc1cccc(S(=O)(=O)N[C@@H]2CC[C@H](CC(=O)NCc3ccc(F)cc3)O[C@@H]2CO)c1
 : -1 | 0 | -1.0 | i
- COCC(=O)N1[C@@H](CO)[C@@H]2c3ccccc3N(C(=O)Nc3ccccc3Cl)C[C@@H]21
 : 1 | -3 | -0.2 | i
- O=C(c1cccc(F)c1)N1C[C@@H]2[C@H](c3ccccc31)[C@H](CO)N2C(=O)c1cccc(F)c1
 : -3 | 2 | -0.2 | i
- CCCN1C[C@H](C)[C@@H](OC)CN(C)C(=O)c2ccc(NC(=O)COC)cc2OC[C@H]1C
 : 2 | -3 | -4.2 | i
- C[C@@H]1CN([C@@H](C)CO)C(=O)CCCn2cc(nn2)CO[C@@H]1CN(C)C(=O)Nc1ccc(N2CCN(C)CC2)cc1
 : -1 | 6 | -0.6 | i
- CC=Cc1ccc2n(c1=O)C[C@H]1[C@H](CO)[C@@H](C(=O)NC3CCCC3)N(Cc3nccs3)[C@@H]21 (mixture of isomers)
 : 1 | -1 | 0.0 | i
- O=C(C[C@H]1C[C@@H]2c3cc(NC(=O)Nc4ccc(F)cc4)ccc3O[C@@H]2[C@H](CO)O1)NCC1CC1
 : 1 | 1 | -1.5 | i
- CO[C@@H]1CN(C)C(=O)c2ccc(NC(=O)Nc3cc(Cl)cc(Cl)c3)cc2OC[C@H](C)NC[C@H]1C
 : -5&-17 | -7&-33 | 7.6&23 | i

An excerpt from above, limited to FGF22 binding.
compound | FGF22 binding
O=C(c1cccc(F)c1)N1C[C@@H]2[C@H](c3ccccc31)[C@H](CO)N2C(=O)c1cccc(F)c1 | i
COCC(=O)N1[C@@H](CO)[C@@H]2c3ccccc3N(C(=O)Nc3ccccc3Cl)C[C@@H]21 | i
O=C(C[C@H]1C[C@@H]2c3cc(NC(=O)Nc4ccc(F)cc4)ccc3O[C@@H]2[C@H](CO)O1)NCC1CC1 | i

(list continues)
Value order – rRNA inh HTS | rRNA inh HTS OD600 | rRNA inh HTS RFP | FGF22 binding
- C[C@H](CO)N1C[C@H](C)[C@@H](CN(C)C(=O)Nc2cccc(C(F)(F)F)c2)OCc2cnnn2CCCC1=O
 : -13 | -7 | 2.0 | i
- CS(=O)(=O)Nc1ccc2c(c1)[C@@H]1C[C@H](CC(=O)NCc3cc(F)ccc3F)O[C@@H](CO)[C@@H]1O2
 : -1 | 1 | -0.9 | i
- CC(C)NC(=O)Nc1cccc2c1O[C@@H](CN(C)Cc1ccc(Cl)c(Cl)c1)[C@H](C)CN([C@@H](C)CO)C2=O
 : -15 | -47 | -0.2 | i
- C[C@H]1CN([C@@H](C)CO)C(=O)Cc2cc(NC(=O)Nc3cccc4ccccc34)ccc2O[C@H]1CN(C)C(=O)Nc1ccccc1
 : -3 | -6 | 2.0 | i
- COc1ccc(NC(=O)N(C)C[C@@H]2Oc3ccc(NC(=O)NC(C)C)cc3C(=O)N([C@@H](C)CO)C[C@@H]2C)cc1
 : 5 | 2 | 0.7 | i
- O=C(NCc1ccc(F)cc1)[C@@H]1[C@@H](CO)[C@@H]2Cn3c(cccc3=O)[C@H]1N2C(=O)Cc1ccccn1
 : 5 | 6 | 0.3 | i
- COc1ccc(S(=O)(=O)Nc2ccc3c(c2)C(=O)N([C@H](C)CO)C[C@@H](C)[C@@H](CN(C)C(=O)C2CCCCC2)OCCCC[C@H](C)O3)cc1
 : -2 | 6 | 3.4 | i
- COc1ccccc1NC(=O)N1C[C@@H](O)COC[C@@H]2O[C@H](CC(=O)NCCc3ccccc3)CC[C@H]21
 : 0 | 15 | -0.8 | i
- CN1C(=O)c2cc(NC(=O)c3ccccc3Cl)ccc2OC[C@H]2O[C@H](CC(=O)NCC(F)(F)F)CC[C@@H]21
 : 2 | 1 | -0.6 | i
- CO[C@@H]1CN(C)C(=O)c2cc(NC(=O)NC(C)C)ccc2OC[C@@H](C)N(S(C)(=O)=O)C[C@@H]1C
 : 0 | -2 | 1.2 | i
- CO[C@H]1CC[C@@H]2CCN(C)C(=O)[C@H](C)[C@H](OC)CN(C)C(=O)c3cc(C#N)ccc3OC[C@H]1O2
 : 2 | 4 | -1.2 | i
- C[C@@H]1CN([C@@H](C)CO)C(=O)c2cc(NS(=O)(=O)c3ccccc3)ccc2O[C@@H]1CN(C)S(=O)(=O)c1cccs1
 : 1 | 0 | 3.2 | i
- C[C@H](CO)N1C[C@H](C)[C@H](CN(C)CC2CC2)Oc2c(NC(=O)c3nc4ccccc4s3)cccc2C1=O
 : -5 | 0 | -3.6 | i
- O=C(C[C@@H]1CC[C@H]2[C@@H](COC[C@H](O)CN2CCC(F)(F)F)O1)NCc1ccc2c(c1)OCO2
 : 1 | -6 | -1.6 | i
- O=C(C[C@@H]1CC[C@H]2[C@@H](COC[C@H](O)CN2Cc2ccncc2)O1)NCC1CC1
 : 3 | 10 | -4.1 | i
- CC(C)NC(=O)Nc1cccc2c1O[C@@H](CN(C)C(=O)NC(C)C)[C@@H](C)CN([C@H](C)CO)C2=O
 : -1 | 7 | 0.9 | i
- CCCN1C[C@@H](C)[C@@H](OC)CN(C)C(=O)c2ccc(NC(=O)C3CCC3)cc2OC[C@@H]1C
 : 3 | 10 | -2.2 | i
- C[C@@H]1CN([C@H](C)CO)C(=O)c2cc(-c3cccc(C#N)c3)cnc2O[C@@H]1CN(C)C(=O)c1cnccn1
 : 1 | 7 | -3.8 | i
- N#C[C@@H]1[C@@H](c2ccc(C3=CCCC3)cc2)[C@H](CO)N1c1nc(-c2ccccc2)cs1
 : -5 | 15 | -2.1 | i
- CC(=O)C1=CCN(C)CC1
 : 13 | 10 | 2.8 | i
- CO[C@H]1CN(C)C(=O)c2cc(NC(=O)Nc3ccccc3F)ccc2OC[C@@H](C)N(C(C)=O)C[C@@H]1C
 : 1 | 1 | -2.5 | i
- CCCC#Cc1ccc2c(c1)O[C@H](CN(C)Cc1cccnc1)[C@@H](C)CN([C@H](C)CO)S2(=O)=O
 : -8 | -22 | 13 | i
- C[C@H]1CN([C@@H](C)CO)S(=O)(=O)c2ccc(-c3ccncc3)cc2O[C@@H]1CN(C)C
 : 2 | 12 | 0.4 | i
- Cc1ccc2nc(-c3cccc(Cl)c3)c(Cc3cccc(Cl)c3)n2c1
 : -11 | -6 | 16 | i
- CCCNC(=O)[C@@H]1[C@@H](CO)[C@@H]2Cn3c(ccc(C4=CCCC4)c3=O)[C@H]1N2Cc1ccncc1
 : 2 | 0 | -2.1 | i
- CC(=O)N1Cc2cc(C(=O)NCC(F)(F)F)nc(-c3cccc(-c4cncnc4)c3)c2[C@H]1CCO
 : 3 | 11 | -0.4 | i
- C[C@@H]1CN([C@@H](C)CO)C(=O)Cc2cc(NC(=O)Cc3cn(C)c4ccccc34)ccc2O[C@@H]1CN(C)Cc1ccc(Cl)c(Cl)c1
 : 0 | -4 | -2.0 | i
- C[C@@H]1CN([C@@H](C)CO)C(=O)Cc2cc(NS(C)(=O)=O)ccc2O[C@@H]1CN(C)Cc1ccncc1
 : 0 | -1 | 1.8 | i
- CS(=O)(=O)Nc1ccc2c(c1)[C@@H]1C[C@H](CC(=O)N3CCOCC3)O[C@@H](CO)[C@@H]1O2
 : 3 | 2 | -2.6 | i
- COc1ccc2c(c1)[C@@]1(OCCC=C[C@H]1C)C(=O)N2Cc1ccccc1C(F)(F)F
 : -4 | -2 | -5.4 | i
- O=C(c1cnccn1)N1CC(=O)N2[C@@H](CO)[C@@H](c3ccc(C#CCc4ccccc4)cc3)[C@@H]2C1
 : 1 | 5 | -1.2 | i
- O=C(C[C@H]1CC[C@H]2[C@@H](COC[C@@H](O)CN2Cc2cc(F)ccc2F)O1)NCc1ccc(Oc2ccccc2)cc1
 : -20 | -27 | 31 | i
- C[C@H](CO)N1C[C@H](C)[C@@H](CN(C)Cc2ccccc2)Oc2ccc(NC(=O)Cc3cn(C)c4ccccc34)cc2CC1=O
 : -1 | -16 | 15 | i
- COc1ccc(S(=O)(=O)N(C)C[C@@H]2OCCCC[C@H](C)Oc3ccc(NC(=O)Nc4c(C)noc4C)cc3C(=O)N([C@H](C)CO)C[C@H]2C)cc1
 : 1 | 5 | 2.1 | i
- CN(C)CC(=O)Nc1ccc2c(c1)[C@H]1C[C@H](CC(=O)N3CCc4ccccc4C3)O[C@H](CO)[C@H]1O2
 : -2 | 0 | -0.8 | i
- COC1OC(COCc2ccccc2)C2OC(C)(C)OC2C1O (stereo not drawn)
 : 4 | 15 | -4.0 | /
